Rango dissoc inh = inhibition of RanGTP-driven Rango-importin beta dissociation. Biochemical FRET Rango-importin beta, RanGTP-induced dissociation. Potency, µM (highest dose often 46.1 µM), for inactives: at the highest dose activity change, negative = inhibition. 340,000 compounds, 0.071% hits. O95149+P62826; active means falling FRET ratio curve, often poorly fitted, with flat reads before Ran was added; inconclusive means other falling curves, or compound fluorescence or quenching; inactive means flat or rising ratio curve;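 also: potency is read from the fitted curve at half-maximal effect; % of control where 0% means no effect; nearly all actives have a fitted effect of over 45% in size; -100% = wells without RanGTP and RCC1; the record marks most hits as doubtful in a second field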
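Compounds sat 5 min at room temperature with 0.1 uM Rango biosensor plus 0.25 uM importin beta, then FRET pre-read. RanGTP-RCC1 (0.6 uM Ran, 2mM GTP, 0.2 uM RCC1) added for 45 min, and the CFP/YFP post-read measured blocked complex dissociation.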
Rango complex inh = Rango-importin beta binding inhibition; Q14974; Rango CFP/YFP FRET sensor + importin beta, 45 min; Potency, µM (series often up to 92.2 µM), without a hit: at the highest dose inhibition of complex formation; 340,000 compounds, 0.031% hits; AID 540263; active = rising FRET ratio curve, often small or poorly fitted; inconclusive = mostly compound fluorescence or quenching in the first reads; inactive = flat curves in all reads;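 also: potency is read from the fitted curve at half-maximal effect; 0% = DMSO wells and 100% = buffer wells lacking importin beta; nearly all actives have a fitted effect of over 15% in size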
Target sequence (Q14974 whole entry, looked up): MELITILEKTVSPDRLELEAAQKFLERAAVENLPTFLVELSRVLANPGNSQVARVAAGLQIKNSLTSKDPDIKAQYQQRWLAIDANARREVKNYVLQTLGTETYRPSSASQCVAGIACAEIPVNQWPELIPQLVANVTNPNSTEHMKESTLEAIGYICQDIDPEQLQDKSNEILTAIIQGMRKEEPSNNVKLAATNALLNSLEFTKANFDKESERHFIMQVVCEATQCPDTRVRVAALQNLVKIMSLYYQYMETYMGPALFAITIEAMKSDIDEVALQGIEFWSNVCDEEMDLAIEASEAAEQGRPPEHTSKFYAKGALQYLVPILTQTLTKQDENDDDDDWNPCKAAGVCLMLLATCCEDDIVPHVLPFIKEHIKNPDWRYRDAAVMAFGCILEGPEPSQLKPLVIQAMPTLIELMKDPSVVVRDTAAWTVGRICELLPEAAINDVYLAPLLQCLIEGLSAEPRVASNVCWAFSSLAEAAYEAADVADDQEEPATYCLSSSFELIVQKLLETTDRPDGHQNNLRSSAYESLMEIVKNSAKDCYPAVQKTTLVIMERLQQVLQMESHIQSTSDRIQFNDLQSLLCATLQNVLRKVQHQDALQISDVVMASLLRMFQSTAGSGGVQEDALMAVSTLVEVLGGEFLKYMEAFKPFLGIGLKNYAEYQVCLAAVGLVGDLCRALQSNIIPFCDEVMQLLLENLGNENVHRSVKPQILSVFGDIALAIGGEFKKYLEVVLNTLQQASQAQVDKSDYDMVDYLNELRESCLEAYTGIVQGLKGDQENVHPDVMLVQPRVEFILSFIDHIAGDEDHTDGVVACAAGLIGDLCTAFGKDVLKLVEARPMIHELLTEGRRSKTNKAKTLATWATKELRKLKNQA
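FRET biosensor Rango (snurportin 1 IBB between N-terminal EYFP and C-terminal Cerulean), 50 nM in PBS/1 mM DTT/0.02% Tween-20/0.1% BSA, preincubated 5 min RT with compound; 0.125 microM importin beta added, 45 min RT, CFP/YFP FRET ratio read.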
miR-21 reporter = miR-21 reporter, rising signal; Potency, µM (highest dose often 38.3 µM), without a hit: at the highest dose reporter change, positive = more light; HeLa miR-21 FLuc reporter, luciferase, 48 h; 340,000 tested, under 10 active; active = well fitted rising curve with a large enough effect; inconclusive = small, poorly fitted or top-dose-only effect; inactive = no such curve, though single readings can be large or run the other way;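 also: % of control where 0% means no effect; miR-21 action dims this reporter so a rising signal means less miR-21 action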
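Compounds were titrated across several concentrations (up to approximately 40 uM) and incubated 48 hours with HeLa miR-21-FLuc reporter cells (miR-21 target sequence downstream of FLuc, endogenous miR-21). Readout was firefly luciferase luminescence after lytic detection reagent.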
GLA inh pH 4.5 = alpha-galactosidase A (human) inhibition, pH 4.5. P06280. 230,000 tested, under 10 active. purified enzyme, 4-MU-alpha-Gal fluorescence, pH 4.5. activity change, negative = inhibition, % at 105 µM; inconclusive = small, poorly fitted or top-dose-only inhibition, or a rising curve; inactive = flat fitted curve, though single readings scatter; no compound was filed as active;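 also: 0% = full activity with enzyme and -100% = basal without enzyme; dose as in the result columns while the protocol names 77 µM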
Starred values were filed as active, the others as inactive; ? = inconclusive; nt = not tested or not shown; & = joins results of further samples.

Rango complex inh,miR-21 reporter,GLA inh pH 4.5,Rango dissoc inh,SMILES
0.7%,1.5%,nt,0.5%,Cc1cc(NC(=O)C(C)SCC(=O)Nc2ccc(SC(F)F)cc2)no1 (stereo not drawn)
2.1%,-1.1%,-0.6,-17.0%,CN1CCN(CCCNC(=O)c2nnc(Cc3c(F)cccc3Cl)o2)CC1
-0.7%,nt,nt,16.2%,COC1=CC(=O)C=C(OC)C1(O)CC(C)=O
-2.4%,1.1%,nt,18.7%,O=C(NCc1ccco1)C1(S(=O)(=O)c2ccccc2)CC=CC1
2.8%,-8.1%,-9.3,14.2%,COC(=O)/C=C1/C(=O)N/C(=N\c2nc(C)cc(C)n2)N1c1ccc(OC)cc1
-3.8%,-3.3%,nt,0.5%,Cc1ccc2nc(-c3ccc(F)cc3)nc(SCC(=O)NCC3CCCO3)c2c1 (stereo not drawn)
-2.5%,-3.7%,-4.2,-12.2%,CCS(=O)(=O)N1CCN(C(=O)CC(C)C)CC1
-2.7%,-11.0%,7.3,25.4%,O=C(Nc1ccc(S(=O)(=O)NCc2ccco2)cc1)C1CCCCC1
3.1%,0.4%,0.0,?,CC(C)c1ccc[n+](-c2nc([O-])sc2C=O)c1
-2.6%,-1.9%,-0.6,5.6%,Cc1ccc(OCC(=O)N(Cc2cccs2)C2CCS(=O)(=O)C2)cc1 (stereo not drawn)
-2.5%,0.6%,nt,0.4%,CN1CCN(NC(=O)Nc2ccc([N+](=O)[O-])cc2)CC1
4.8%,-1.8%,4.1,9.6%,O=S(=O)(NCc1cccnc1)c1ccc2c(c1)OCCO2
-0.4%,-1.4%,6.6,-16.9%,O=C(NNS(=O)(=O)c1ccccc1[N+](=O)[O-])c1ccccc1[N+](=O)[O-]
0.4%,-39.9%,nt,9.5%,COc1ccc(CNc2ccc3c(c2)nc(C)n3C)cc1OC
3.4%,-29.5%,-1.5,2.8%,Oc1ccc(-c2nc(-c3ccc(O)c(O)c3)cs2)cc1
-0.5%,-0.1%,nt,-14.1%,O=[N+]([O-])c1ccc(N(CC2CO2)S(=O)(=O)c2ccccc2)cc1 (stereo not drawn)
2.0%,nt,nt,22.8%,NS(=O)(=O)c1cc(C(=O)OCC(=O)NNC(=O)c2ccccc2)ccc1Cl
0.7%,-26.3%,nt,12.0%,O=C(Cc1cccs1)Nc1ccccc1
-0.7%,-2.8%,-4.5,-7.5%,COCCCNCCOCCOc1ccc(C)cc1Br
nt,-5.9%,5.4,nt,NC1=CC(=O)c2cccc3cccc1c23
-0.7%,-3.4%,-11.0,14.4%,COc1cccc(NS(=O)(=O)c2cc(C)sc2C)c1
?,-28.1%,0.5,5.9%,Oc1ccc2ccccc2c1/C=N/Nc1ccccc1
4.0%,-8.1%,0.9,-3.5%,Cc1[nH]n(-c2cccc(Cl)c2)c(=O)c1C=NC12CN3CN(CN(C3)C1)C2
-2.8%,-34.6%,nt,6.1%,Cc1cccc(OCC(=O)N2CCc3ccccc3C2)c1
3.7%,3.9%,-4.0,7.9%,COc1cc(/C=C/C(=O)NCc2ccccn2)cc(OC)c1OC
1.7%,-27.1%,-0.5,-6.9%,Clc1ccccc1CSc1nnc(/C=C/c2ccccc2)o1
0.1%,-6.9%,4.8,-15.2%,COc1cccc(OC)c1C(=O)Nc1ccc(CN2CCCCC2)cc1
?,1.5%,nt,0.7%,CCNc1c(NS(=O)(=O)c2ccc(Cl)s2)c(=O)oc2ccccc12
0.1%,nt,nt,-4.3%,CC(C)CCCN1C(N(C)C)=NC[C@@H]1C
1.8%,-1.0%,-17.4,7.1%,COc1ccccc1/C=C/C=N/n1c(C)nnc1C
-4.3%,-6.9%,8.8,-1.8%,CC(=O)N(C(C)=O)c1ccc2nc(C)[nH]c(=O)c2c1
-2.5%,-17.6%,-0.1,20.4%,Cc1ccc(-c2cc(=O)c3ccc(F)cc3[nH]2)cc1
-0.6%,-7.1%,-2.6,-5.0%,COc1ccc(OC)c(NC(=O)CSc2nnc(C)n2Cc2ccccc2)c1
?,-29.5%,-10.8,-10.4%,Cc1sc(N/N=C/c2cccs2)nc1-c1ccccc1
-1.1%,0.6%&-1.2%,nt,6.1%,CCN(C(=O)CCNC(=O)Cn1cnc2ccccc2c1=O)c1cccc(Cl)c1
-3.2%,-5.1%,6.0,-12.1%,CCC(=O)N(CC)c1nc(-c2cc(OC)ccc2OC)cs1
1.0%,-1.3%,-1.9,-6.2%,Cc1cc(C(=O)NC(C)C)on1
0.1%,-1.6%,-15.6,3.2%,O=C(N=Nc1c(O)n(C2OC(=O)c3ccccc32)c2ccccc12)c1ccc(O)cc1 (stereo not drawn)
-1.3%,-3.4%,7.8,8.5%,Cc1ccc(-n2nc(C)cc2N)c(C)c1
0.3%,21.0%,-0.5,-6.7%,Cc1nc([N+](=O)[O-])c(Br)n1CC(=O)c1ccccc1
0.6%,12.7%,2.6,-22.8%,CCc1cc2c(SCC(=O)NC(=O)c3cccn3C)ncnc2s1
6.3%,nt,nt,6.2%,COc1ccc(NC(=O)CN(C)C(=O)c2c(C)nn(Cc3ccccc3)c2C)cc1
0.2%,-29.6%,0.8,0.1%,CC1(C)CC(=O)C2=C(C1)Nc1ccccc1NC2c1nc2ccccc2[nH]1 (stereo not drawn)
-4.0%,-6.5%,-8.9,-7.5%,O=C(COC(=O)CNC(=O)c1ccc(Br)o1)Nc1ccc2c(c1)OCCO2
0.7%,-8.1%,14.3,0.9%,O=C1N/C(=C\c2ccsc2)C(=O)N1Cc1ccc(F)cc1
-0.5%,-6.5%,nt,7.4%,O=C(Nc1cccc(NC(=O)c2ccccc2)n1)c1ccccc1
-4.4%,nt,nt,3.5%,C[C@H]1COC(=O)[C@@H](Cc2ccc(F)cc2)CC/C=C/C[C@H](CC(=O)N(CCO)Cc2ccccc2)C(=O)N1
-5.4%,nt,nt,-1.9%,Cc1cc(C)c2c(n1)nn1c(NCCCN3CCOCC3)cc(C)nc21

Four compounds out of the list above, arranged by their value in GLA inh pH 4.5, smallest number first.
| SMILES | GLA inh pH 4.5 |
| --- | --- |
| Cc1nc([N+](=O)[O-])c(Br)n1CC(=O)c1ccccc1 | -0.5 |
| CCc1cc2c(SCC(=O)NC(=O)c3cccn3C)ncnc2s1 | 2.6 |
| O=C(NNS(=O)(=O)c1ccccc1[N+](=O)[O-])c1ccccc1[N+](=O)[O-] | 6.6 |
| O=C(Nc1ccc(S(=O)(=O)NCc2ccco2)cc1)C1CCCCC1 | 7.3 |

Following part:
Rango complex inh,miR-21 reporter,GLA inh pH 4.5,Rango dissoc inh,SMILES
-8.0%,-0.9%,8.2,0.1%,CCOc1ccc(CNC(=O)C(CC)n2nc(C)n3c(cc4occc43)c2=O)cc1OC (stereo not drawn)
-0.6%,21.8%,-4.6,2.4%,COc1cccc(CNC(=O)Cc2ccc(-n3c(=O)[nH]c4ccccc4c3=O)cc2)c1
3.3%,-13.8%,-0.8,1.6%,Cc1ccc(CNC(=O)Nc2ccc(C)cc2)cc1
-1.7%,-75.3%,nt,?,CCOC(=O)CC(NC(=O)c1cc2cccc(OC)c2oc1=O)c1ccc(OC)cc1 (stereo not drawn)
-1.1%,8.5%,-2.7,0.9%,COCCn1c(=O)[nH]c2cc(C(=O)N3CCN(c4ccccc4OC)CC3)ccc2c1=O
-1.3%,-0.6%,nt,-0.1%,CCC(C)NC(=O)CN(C1CCCCC1)S(=O)(=O)c1ccc(F)cc1 (stereo not drawn)
-2.4%,12.7%,3.4,8.8%,C=CCn1c(SCC(=O)N2CCOCC2)nc2scc(-c3ccco3)c2c1=O
0.2%,-11.2%,2.4,1.6%,Cc1ccc(-c2nn3c(C)nnc3c3ccccc23)cc1S(=O)(=O)NC(C)c1ccccc1 (stereo not drawn)
-1.6%,21.4%,nt,2.9%,Cc1ccc(C2=NN(C(=O)c3ccccc3F)C(c3ccccc3F)C2)cc1 (stereo not drawn)
0.8%,1.0%,-4.9,-9.3%,Cc1ccc(CNC(=O)CCSCCC(=O)NCc2ccc(C)cc2)cc1
-2.3%,nt,nt,21.4%,Nc1nc(SCC(=O)Nc2cccc(F)c2)n[nH]1
2.8%,-5.8%,nt,19.8%,COc1ccccc1CNC(=O)CC(C)c1ccccc1 (stereo not drawn)
-0.7%,-1.8%,nt,0.7%,CCN1C(=O)[C@H]2[C@@H](c3ccc(C)cc3)N3C(=O)N(c4ccccc4)C(=O)[C@@]3(C)[C@H]2C1=O
3.7%,-8.7%,-3.9,9.5%,COC(=O)c1cccc(NC(=S)NCc2ccc(F)cc2)c1
-0.5%,9.6%,nt,22.5%,COc1ccccc1OCCn1c(=S)[nH]c2ccccc21
?,-3.1%,1.0,?,Cc1ccc(S(=O)(=O)N2CN(Cc3ccco3)c3nc4ccccc4nc32)cc1C
0.1%,-1.6%,-13.1,17.8%,N#C/C(=C\c1ccccc1)C(=O)Nc1nncs1
0.9%,-2.5%&4.3%,nt,5.5%,O=C(c1ccc(CS(=O)(=O)c2ccc(Br)cc2)o1)N1CCN(c2ccc(F)cc2)CC1
4.1%,?,0.7,-13.1%,O=c1c(Cl)c(Cl)cnn1-c1ccccc1
-3.6%,1.0%,2.1,44.8%,COc1ccccc1NC(=S)NC(NC(=O)C(C)C)C(Cl)(Cl)Cl (stereo not drawn)
-3.3%,0.5%,-2.3,16.0%,COc1ccc(Oc2c(Cl)cnn(-c3ccc(C)cc3)c2=O)cc1
0.1%,-1.0%,-0.9,-5.1%,O=C(Cn1cc(C(F)(F)F)cc(Cl)c1=O)Nc1cc(Cl)cc(Cl)c1
-1.2%,6.1%,0.2,-3.3%,Cc1cnc(C)c(N2CCC(C(=O)NCc3ccco3)CC2)n1
-3.7%,-35.5%,3.3,0.6%,CC(=O)Nc1cccc(C(=O)OCc2ccccc2)c1
1.3%,nt,nt,3.4%,COc1cccc(C(=O)NCCS(=O)(=O)N(C)Cc2ccccc2)c1
0.1%,-0.4%,8.3,8.3%,CC(C)(C)NC(=S)NCc1ccncc1
-0.1%,2.2%,2.8,0.7%,O=C1C2C3c4ccccc4C(c4ccccc43)C2C(=O)N1Cc1ccccn1 (stereo not drawn)
1.4%,-4.3%,2.8,-24.6%,CCOC(=O)CCCNC(=O)COC(=O)c1cccc(C)c1O
0.3%,-5.6%,-3.9,-2.3%,Cc1nc2c(n1O)CCC/C2=N\O
0.1%,-0.1%,nt,-0.7%,CCC(=O)N1c2ccc(S(=O)(=O)NCCc3ccc(OC)c(OC)c3)cc2CC1C (stereo not drawn)
-1.8%,-2.1%,0.2,23.4%,CCc1c(C)nc2ncnn2c1N1CCC(C(=O)Nc2cccc(C(C)=O)c2)CC1
-0.7%,nt,nt,3.7%,Cc1cccc(C(=O)NCCC(=O)N2CCc3ccccc3C2)c1
?,nt,nt,22.4%,Cc1nnc(SC(C)C(=O)N(C)C2CCCCC2)n1N (stereo not drawn)
-1.3%,-0.5%,3.5,6.3%,O=C(Nc1ccc(Nc2ccncc2)cc1)c1ccc(Nc2ccnc3ccc([N+](=O)[O-])cc23)cc1
2.1%,nt,nt,6.0%,CN(CC(=O)Nc1ccc(Cl)c(Cl)c1)C(=O)CNC(=O)Cc1ccccc1
-0.8%,-5.8%,-10.0,-4.4%,O=C(CCN1C(=O)C2C3CCC(C3)C2C1=O)Nc1ccc(Br)cc1 (stereo not drawn)
-0.5%,0.9%,nt,0.4%,CCc1nnc(NC(=O)CSC(=S)N2CCOCC2)s1
0.0%,-12.8%,-4.1,31.5%,CN(C)c1nc(-c2ccccc2)nnc1C(F)(F)F
2.3%,-3.8%,1.8,1.1%,CC(CCC(=O)Nc1nncs1)C(=O)O (stereo not drawn)
0.2%,-10.1%,3.0,-0.5%,Cc1ccc(-c2nnn(CC(=O)Nc3cccc4c3CCCC4)n2)o1
-3.6%,nt,nt,-1.0%,Cc1ccc2oc(=O)ccc2c1
-1.1%,-0.4%,nt,0.2%,CCc1ccc(NC(=O)NCCN2CCN(c3ccc(OC)cc3)CC2)cc1
5.3%,nt,nt,25.1%,COc1ccc(C(=O)NNC(=S)NC(=O)c2ccc(Cl)cc2)cc1

High-throughput results: PubChem, National Center for Advancing Translational Sciences (NCATS)

Only part of the results is shown, so the mix of outcomes need not match the whole.
